Screening data as filed in PubChem.
PINK1 modulator – changes PINK1 expression | PINK1 immunofluorescence, high-content cytometry, 24 h | Potency, µM (highest dose often 76.6 µM), for inactives: at the top dose activation (PINK1 increase), actives largely listed as activators | 410,000 tested, 0.2% active; active = well fitted activation curve with a large enough effect; inconclusive = small, poorly fitted or top-dose-only effect; inactive = flat fitted curve, though single readings scatter; cell line not stated here;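 note: % of control where 0% means no effect; nearly all actives have a fitted effect of over 65% in size; a mitochondrial uncoupler was the plate control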
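PINK1 protein level read as immunofluorescence by microplate cytometer in a fixed, stained stable cell line after 24 h exposure to five compound concentrations, with CCCP as control.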
* = called active by the depositor; ? = inconclusive. Potency is the fitted concentration of half-maximal effect. Not all compounds are listed, so the mix of outcomes need not match the whole.

PINK1 modulator,Structure
-0.2%,Cc1ccc(-n2nc3c(N4CCCC(C(=O)NCc5ccc(Cl)cc5)C4)nnc(C)c3c2C)cc1 (stereo unspecified)
1.7%,CCOc1ccccc1NC(=O)Cn1c(=O)n(-c2ccc(C)cc2)c(=O)c2c1cnn2C
1.1%,CCCOc1ccc(C(=O)N(Cc2ccc(N(C)C)cc2)CC2CCCO2)cc1 (stereo unspecified)
-0.4%,Cc1ccc(CSCCNC(=O)CN(c2cccc(C)c2C)S(=O)(=O)c2ccccc2)cc1
-0.1%,CCc1ccc(NC(=O)CSc2cn(CC(=O)N3CCCC3)c3ccccc23)cc1
-0.2%,c1ccc(-c2nc(-c3cnc4ccccc4n3)cs2)cc1
1.6%,CCc1ccc(NC(=O)c2cc(CN3CCOCC3)on2)cc1
0.8%,CCc1ccc(S(=O)(=O)c2cn(C)c3cc(F)c(F)cc3c2=O)cc1
11.7%,Cc1cc2c(cc1S(=O)(=O)CCC(=O)N1CCN(c3ccccc3)CC1)OCC(=O)N2
-1.0%,Cc1cccc(NC(=O)CSC2=Nc3ccccc3C3=NC(CCC(=O)NCc4ccco4)C(=O)N23)c1 (stereo unspecified)
0.0%,COCCCNC(=O)CCCCn1c(=O)c2ccccc2n(CC(=O)Nc2ccc(C)cc2C)c1=O
0.1%,COc1cc(C(=O)N2CCNC(=O)C2CC(=O)Nc2ccc(C)c(C)c2)cc(OC)c1OC (stereo unspecified)
-1.2%,Cc1cc2c(cc1S(=O)(=O)N(CCN(C)C)Cc1ccco1)OCC(=O)N2
-0.3%,Cc1cc(OC(C)C(=O)N2CCC(c3nc4ccccc4o3)CC2)ccc1Cl (stereo unspecified)
6.6%,Cc1cccc(N2C(=O)C(CC(=O)Nc3ccc(F)cc3)N(C3CCCC3)C2=O)c1 (stereo unspecified)
1.0%,CC(=O)C1=C(c2ccc(C)cc2)N(C(C)=O)n2c(nnc2-c2ccccc2)S1
-0.1%,COc1ccccc1CNC(=O)CC(c1ccc(F)cc1)N1Cc2ccccc2C1=O (stereo unspecified)
1.7%,CCOC(=O)c1cnc2c(ccc3ccccc32)c1Nc1cccc(Cl)c1
1.4%,CCc1cccc(CC)c1NC(=O)Cn1nnc2sc3c(c2c1=O)CCCC3
1.2%,COc1cccc(CNC(=O)C(=O)Nc2c3c(nn2-c2ccccc2)CSC3)c1
0.0%,COc1ccc(CN2Cc3ccccc3OC(c3ccccc3OC)C2)c(O)c1 (stereo unspecified)
0.2%,CCOc1ccc(NC(=O)NC(C)c2c(-n3cccc3)sc(C)c2C)cc1 (stereo unspecified)
8.7%,COc1ccc(C(=O)Nc2ccc3nc4c(c(Nc5ccccc5OC)c3c2)CCCC4)c(OC)c1
9.2%,O=C(Nc1ccc2nc(SCC(=O)N3CCCC3)sc2c1)c1cccc(F)c1
-0.6%,CCOc1ccc(NC(=O)c2nnn(-c3ccc(F)c(Cl)c3)c2C)cc1
-0.8%,CCCCN(CCCC)S(=O)(=O)c1ccc(NC(=O)c2c(-c3ccccc3)noc2C)cc1
2.1%,Cc1ccc2c(c1)CCCN2C(=O)c1cnn2c1NC(=C1CC1)C=C2C(F)F
2.0%,Cc1cccc(N2CCn3c2nc2c3c(=O)n(CCc3ccccc3)c(=O)n2C)c1
0.9%,COC(=O)c1cccnc1-n1c(=O)c2cccnc2n(CC(=O)Nc2cccc(C(F)(F)F)c2)c1=O
1.2%,CCCCNC(=O)CCCn1c(=O)c2ccccc2n(Cc2ccccc2C)c1=O

Looked up above.
For PINK1 modulator, CCOc1ccccc1NC(=O)Cn1c(=O)n(-c2ccc(C)cc2)c(=O)c2c1cnn2C is entered as 1.7%
For PINK1 modulator, COc1ccc(C(=O)Nc2ccc3nc4c(c(Nc5ccccc5OC)c3c2)CCCC4)c(OC)c1 is entered as 8.7%
For PINK1 modulator, COC(=O)c1cccnc1-n1c(=O)c2cccnc2n(CC(=O)Nc2cccc(C(F)(F)F)c2)c1=O is entered as 0.9%

6 of the compounds above, as a markdown table.
| structure | PINK1 modulator |
| --- | --- |
| CC(=O)C1=C(c2ccc(C)cc2)N(C(C)=O)n2c(nnc2-c2ccccc2)S1 | 1.0% |
| COc1ccccc1CNC(=O)CC(c1ccc(F)cc1)N1Cc2ccccc2C1=O (stereo unspecified) | -0.1% |
| CCOC(=O)c1cnc2c(ccc3ccccc32)c1Nc1cccc(Cl)c1 | 1.7% |
| CCc1cccc(CC)c1NC(=O)Cn1nnc2sc3c(c2c1=O)CCCC3 | 1.4% |
| COc1cccc(CNC(=O)C(=O)Nc2c3c(nn2-c2ccccc2)CSC3)c1 | 1.2% |
| COc1ccc(CN2Cc3ccccc3OC(c3ccccc3OC)C2)c(O)c1 (stereo unspecified) | 0.0% |

Returning to the listing, repeating the two entries before the break.
PINK1 modulator,Structure
0.9%,COC(=O)c1cccnc1-n1c(=O)c2cccnc2n(CC(=O)Nc2cccc(C(F)(F)F)c2)c1=O
1.2%,CCCCNC(=O)CCCn1c(=O)c2ccccc2n(Cc2ccccc2C)c1=O
-0.6%,O=C(Nc1ccccc1)c1ccc(Br)c(S(=O)(=O)N2CCCCC2)c1
0.8%,CC(C(=O)c1ccccc1)[n+]1cccc(Cl)c1 (stereo unspecified)
5.4%,COc1cccc(/C=C/c2nc3ccccc3c(=O)n2-c2ccc(C)c(C)c2)c1OC
-1.1%,Cc1ccc(CNC(=O)c2cnn(-c3ccc(F)cc3F)c2C2CCN(C(=O)OC(C)(C)C)CC2)cc1
0.1%,COc1ccc(NC(=O)Cn2c3ncccc3c(=O)n2-c2ccc(C)c(C)c2)c(OC)c1
2.4%,CCN(C(=O)Cc1nc(-c2ccc(OC)cc2)no1)c1cccc(Cl)c1
2.2%,COc1ccc(OC)c(CNC(=O)c2c(C)oc3ncn(C)c(=O)c23)c1
4.7%,Cc1ccc2nc(COc3cccc(NC(=O)c4cccc(Cl)c4)c3)cc(=O)n2c1
3.1%,Cc1oc(-c2ccccc2Cl)nc1CS(=O)(=O)CC(=O)NC(C)CCc1ccccc1 (stereo unspecified)
3.1%,CCOc1ccc(Br)cc1C1C(C(=O)Nc2ccccc2OC)=C(C)Nc2nnnn21 (stereo unspecified)
0.3%,COc1ccc2c(c1)c1c(c(=O)n(-c3ccc(F)c(Cl)c3)c(=O)n1Cc1cccc(C)c1)n2C
-0.7%,Cn1cnnc1SCC(=O)Nc1cc(C(=O)O)cc(C(=O)O)c1
-0.5%,CC(C)c1ccc(C(=O)Nc2ccc(-c3nc4ccccc4s3)c(Cl)c2)cc1
1.3%,CCC(COC)NC(=O)c1cnn(-c2ncc3c(n2)-c2ccccc2CC3)c1C (stereo unspecified)
1.4%,CCN1C(=O)c2ccccc2S(=O)(=O)c2ccc(C(=O)NCc3ccc(C)cc3)cc21
-1.0%,CC(C)Oc1ccc(C(=O)NCC(c2ccc(N(C)C)cc2)N2CCCC2)cc1 (stereo unspecified)
0.5%,COC(=O)COc1ccc(Oc2nc(NC(C)(C)C)nc(N(C)C)n2)nn1
-0.1%,Cc1ccc(NC(=O)Cn2cc(S(=O)(=O)N3CCC(C)CC3)c3ccccc3c2=O)c(Br)c1
1.3%,COC(=O)c1ccccc1NC(=O)c1cnc2c(-c3cccc(C)c3)c(C)nn2c1C
0.9%,CCc1ccc(CN(Cc2ccco2)C(=O)c2cc(-c3ccc(Cl)cc3)on2)cc1
1.9%,CCC(C)N(c1ccc(/C=C/c2ccnc3ccccc23)cc1)C(C)CC (stereo unspecified)
-0.4%,CCOc1ccc(NC(=O)CC2C(=O)N(c3ccc(F)cc3)C(=O)N2CCc2sccc2C)cc1 (stereo unspecified)
3.1%,COC(=O)c1sc2cccc(F)c2c1S(=O)(=O)NC(C)c1ccccc1 (stereo unspecified)
4.9%,CCOC(=O)c1[nH]c(C)c(CCC(=O)NCc2ccc(CC)cc2)c1C
3.5%,Cc1ccc(OCC(=O)Nc2nnc(SCc3cc(=O)c4ccccc4[nH]3)s2)cc1
3.0%,O=[N+]([O-])c1ccc(C(c2sc3nc(-c4ccco4)nn3c2O)N2CCN(c3cccc(Cl)c3)CC2)cc1 (stereo unspecified)
1.0%,CN(C)c1cc(F)c(C=O)cc1F
0.6%,COc1ccc(CCNC(=O)CCn2c(=O)c3ccccc3n(CC(=O)Nc3ccc(C)cc3C)c2=O)cc1OC
-0.1%,COc1ccc(-c2onc(C)c2C)cc1S(=O)(=O)N1CCN(c2cc(C)ccc2C)CC1
0.2%,Cc1cccc(N2CCN(C(=O)c3cccn4c(=O)c5cc(Cl)ccc5nc34)CC2C)c1 (stereo unspecified)
1.4%,CCOC(=O)c1c(S(=O)(=O)N2CCCC(C(=O)N3CCN(c4cc(C)ccc4C)CC3)C2)c(C)n(C)c1C (stereo unspecified)
-1.0%,c1ccc(CN2CCN(Cc3ccc4c(c3)CN(Cc3c[nH]c5ccccc35)CCO4)CC2)nc1
-0.3%,COc1ccc(C2=C(N3CCN(c4cc(Cl)ccc4C)CC3)c3ccccc3C2=O)cc1
2.0%,OCCCn1c(-c2ccc(F)cc2)csc1=Nc1ccc(F)cc1
28.5%,Cc1cccc(NC(=O)c2ccc3nc(CCc4ccccc4)oc3c2)c1C
2.3%,CN(C(=O)C(=O)Nc1ccc2nc3n(c(=O)c2c1)CCCCC3)c1cccc(C(F)(F)F)c1
-0.8%,Cc1ccc(-c2nc(CS(=O)(=O)CC(=O)NCCc3ccccc3)c(C)o2)cc1
4.7%,Cc1cccc(N2CCN(C(=O)CCCn3c(=O)[nH]c4ccsc4c3=O)CC2)c1C
-0.4%,Cc1ccn2c(NCc3ccco3)c(-c3ccccc3)nc2c1
-0.4%,COc1ccc(OC)c(-c2cc(Cl)c3c(c2)CC(CNC(=O)c2cccnc2SC)O3)c1 (stereo unspecified)
-0.1%,COc1ccc(Nc2c(-c3ccccn3)nc3ccc(Cl)cn23)cc1
-0.1%,CNc1oc(-c2ccc(COc3ccc(C)cc3)o2)nc1C#N
2.8%,Cc1cccc(OCc2nc(C#N)c(NCc3ccccc3Cl)o2)c1
-0.6%,CC(C)CCn1c(=O)c2cccnc2n(CC(=O)Nc2ccccc2)c1=O
-4.4%,Cc1cccc(-n2ccnc2SCC(=O)Nc2nc3ccccc3s2)c1
2.7%,CCOc1ccccc1NS(=O)(=O)c1ccc(N2CCCCS2(=O)=O)cc1
?,O=C(Nc1ccc([N+](=O)[O-])cc1Cl)c1cc(Br)ccc1O
6.0%,Cc1ccccc1Nc1c(-c2ccc(Cl)cc2)nc2c(C)cccn12
0.7%,Cc1ccccc1OCC(=O)N(Cc1ccc(N(C)C)cc1)CC1CCCO1 (stereo unspecified)
11.5%,CC(=O)c1ccc(NC(=O)c2c3c(nc4ccccc24)C(=O)N(C2CCCCC2)C3)cc1
0.5%,CSc1ccc(CCNC(=O)C2CCCN(S(=O)(=O)N(C)c3ccc(F)cc3)C2)cc1 (stereo unspecified)
9.1%,CCc1ccc(C(=O)c2cn(CC(=O)Nc3ccc(OC)c(Cl)c3)c3nc(C)ccc3c2=O)cc1
-0.4%,CCc1ccccc1NC(=O)c1ncoc1-c1ccco1
2.1%,COc1ccc(/C=C/c2nc(C#N)c(NCCc3ccc(OC)c(OC)c3)o2)cc1OC
1.3%,COc1ccc(Nc2nc3cc(Cl)c(Cl)cc3n3cnnc23)cc1Cl
-0.6%,Cc1ccc(S(=O)(=O)N(CCc2ccccc2)CC(=O)Nc2cc(C)ccc2C)cc1
0.9%,CCOC(=O)c1ccc(NC(=O)c2ccc(CN3C(=O)CCn4nc(C)cc43)cc2)cc1
1.2%,COc1ccc(S(=O)(=O)NCC(c2ccco2)N2CCOCC2)cc1OC (stereo unspecified)
-0.4%,CCc1ccc(-n2nc(C)c3c(C)cc(=O)n(CC(=O)Nc4cc(Cl)ccc4OC)c32)cc1
-0.2%,O=C(Cn1ccn(-c2ccc(F)c(F)c2)c(=O)c1=O)c1ccc(F)cc1

New compounds follow.
PINK1 modulator,Structure
5.6%,COCCn1c(C)cc(O)c(C(c2ccccc2)N2CCC(C)CC2)c1=O (stereo unspecified)
7.0%,Cc1ccc(CNC(=O)CN2C(=O)CC(c3ccc(C)c(C)c3)=Nc3ccccc32)cc1
2.8%,CC(NC(=O)Nc1cc(Cl)ccc1Cl)c1c(-n2cccc2)sc2c1CCCC2 (stereo unspecified)
0.1%,COc1ccccc1CN1CCC(CNC(=O)c2cnn(-c3cccc(Cl)c3)c2C2CCN(C(=O)OC(C)(C)C)CC2)CC1
-2.0%,O=C(NCC(c1cccnc1)N1CCc2ccccc2C1)C(=O)Nc1ccc(Cl)cc1 (stereo unspecified)
-4.2%,CC(C)N(C)C1CCN(S(=O)(=O)c2ccc3[nH]c(=O)ccc3c2)CC1
5.2%,CCc1ccc(-n2nnc(-c3nsc(NC(=O)c4ccccc4Cl)n3)c2C)cc1
-0.3%,COc1ccccc1NC(=O)CSC1=Nc2ccccc2C2=NC(CCC(=O)NCc3ccco3)C(=O)N12 (stereo unspecified)
0.9%,Cc1ccc(-n2c(=O)c3c(cnn3C)n(CC(=O)Nc3cc(C)ccc3C)c2=O)cc1
2.0%,Cc1cc(C)cc(C(=O)N(Cc2nc(-c3ccc(Cl)cc3)no2)C(C)C)c1
-1.2%,COc1ccc(C)cc1NS(=O)(=O)c1c(C(=O)N2CCCCCC2)c(C)n(C)c1C
3.3%,Cc1ccc(-c2noc(CNC(=O)c3ccc(Br)o3)n2)cc1
0.3%,CCc1cc2c(cc3c(=O)n(CC(=O)NCCc4ccc(OC)c(OC)c4)ncn32)s1
-0.8%,CC(=O)c1ccc(NC(=O)CN(C)S(=O)(=O)c2cccc3nsnc23)cc1
-0.7%,COc1cc(OC)cc(C(=O)Nc2cc3c(cc2N2CCCC2)n(C)c(=O)c(=O)n3C)c1
4.1%,Cc1cccc(Nc2nc(Nc3cccc(C)c3)nc(N3CCOCC3)n2)c1
0.3%,O=C(c1cccc(Cn2cccn2)c1)N1CCC(n2c(C3CCCO3)nc3cc(C(F)(F)F)ccc32)CC1 (stereo unspecified)
-0.2%,CCc1ccc(S(=O)(=O)c2nnn3c2nc(N2CCC(C(N)=O)CC2)c2cc(Cl)ccc23)cc1
-2.3%,Cc1ccc2c(c1)C(c1ccc(F)cc1)N(C(=O)COc1ccc(Cl)cc1Cl)CC(=O)N2 (stereo unspecified)
